Screening results: PubChem BioAssay, National Center for Advancing Translational Sciences (NCATS)
VACV Venus inh: qHTS for Stage-Specific Inhibitors of Vaccinia Orthopoxvirus: Venus Reporter Primary qHTS. Vaccinia virus Venus reporter expression, fluorescence. Potency, µM (highest dose often 36.5 µM), without a hit: at the top dose activity change, negative = inhibition, most hits filed as inhibitors. 0.46% of 330,000 active. AID 720580, 2013; active means well fitted inhibition curve with a large enough effect; inconclusive means small, poorly fitted or top-dose-only effect; inactive means no such curve, though single readings can be large or run the other way; tested in A549 cells; further: nearly all actives have a fitted effect of over 30% in size; inactives centre near -10
Vaccinia mCherry: qHTS for Stage-Specific Inhibitors of Vaccinia Orthopoxvirus: mCherry Reporter Primary qHTS; AID 720579, 2013; Potency, µM (titrated, usually from 36.5 µM), without a hit: at the highest dose activity change, negative = inhibition, most hits filed as inhibitors; 0.63% of 310,000 active; Vaccinia virus mCherry reporter infection, fluorescence; about a quarter of the inactives have no number; active = well fitted inhibition curve with a large enough effect; inconclusive = small, poorly fitted or top-dose-only effect; inactive = no such curve, though single readings can be large or run the other way; tested in A549 cells; further: nearly all actives have a fitted effect of over 35% in size; inactives centre near -10
Starred values were filed as active, the others as inactive; i = inactive; ? = inconclusive; / = not tested or not shown; & = joins results of further samples; [ ] = another dose, or the depositor's remark. On the % scale 0 is the no-effect control and ±100 the full control effect; potency means the concentration at half of the fitted maximal effect.

Below each compound: VACV Venus inh	Vaccinia mCherry
1: COc1ccc(CCNC(=O)COc2cccc3c2OC(C)(C)C3)cc1OC
  -7%	i
2: CCOC(=O)NC(c1ccc(C(C)C)cc1)C(Cl)(Cl)Cl (configuration not stated)
  -3%	-11%
3: N#CCN(CC#N)C(=O)C1c2ccccc2Oc2ccccc21
  -11%	i
4: CCOc1cc(NC(=O)c2cccs2)c(OCC)cc1NC(=O)c1ccccn1
  -1%	i
5: Cc1cccc(-c2cc(N)n(-c3ccccc3)n2)c1
  -29%	?
6: COc1ccc(CCNC(=O)CN(C)S(=O)(=O)c2ccc(OC)cc2)cc1
  -13%	-1%
7: Cc1ccccc1OCCC(=O)OCC(=O)NC1CC1
  -11%	i
8: COc1ccccc1C(=O)NC(C)c1cccc2ccccc12 (configuration not stated)
  -16%	i
9: Cc1cc([N+](=O)[O-])ccc1NC(=O)c1csc(C)c1C
  -9%	i
10: Cc1cc(C)cc(NC(=O)COC(=O)CC2CCCC2)c1
  -6%	-15%
11: CCOc1cc(N2CCOCC2)c(OCC)cc1NC(=O)CSc1ncn[nH]1
  -7%	?
12: COc1ccc(S(=O)(=O)Nc2ccc(S(=O)(=O)Nc3cc(C)nc(C)n3)cc2)cc1OC
  4%	9%
13: CCC(CC)C(=O)Nc1cccc(-c2nc3cccnc3s2)c1
  -18%	-3%
14: CCC1=C(c2ccc(C)cc2)S(=O)(=O)N=C1N1CCC(C(=O)NCc2ccc(N(C)C)cc2)CC1
  -14%	-13%
15: Cc1ccc(NC(=O)N2CCc3c(sc4c3CCCC4)C2c2ccccc2)cc1F (configuration not stated)
  3%	-11%
16: O=C(NNC(=O)C1CC1)c1ccccc1[N+](=O)[O-]
  2%	i
17: Cc1cc(-c2cc(C(=O)O)c3ccccc3n2)c(C)s1
  -5%	i
18: Cc1ccc(NS(=O)(=O)c2cc(-c3n[nH]c(=O)c4ccccc34)ccc2C)cc1
  ?	?
19: Cc1cc(C)c(S(=O)(=O)NCc2csc(-c3ccccc3)n2)c(C)c1
  -4%	-16%
20: COc1ccc(NC(=O)c2cc3cccc(OC)c3oc2=Nc2ccc(C(=O)O)cc2)cc1OC
  -5%	-14%

(next part)
Below each compound: VACV Venus inh	Vaccinia mCherry
21: O=S(=O)(Nc1nc2ccccc2nc1NCC1CCCO1)c1cccc(Cl)c1 (configuration not stated)
  2%	38%[activator]
22: COc1ccc2[nH]c3c(N4CCN(Cc5ccc6c(c5)OCO6)CC4)ncnc3c2c1
  ?	/
23: COCCN1CCN(C(=O)c2cnn(-c3nccc(-c4ccco4)n3)c2C(C)C)CC1
  4%	-9%
24: CCOC(=O)C1=CN(c2cccc(F)c2)C=C(C(=O)OCC)C1c1cc(OC)c(O)c([N+](=O)[O-])c1
  -25%	-7%
25: CCOc1ccc(S(=O)(=O)N(CC)CC)cc1NS(=O)(=O)c1ccc(F)c(F)c1F
  4.5µM*	4µM*
26: COc1cccc(C(=O)N2CCC(N3CC(C)OC(C)C3)CC2)c1 (configuration not stated)
  -11%	i
27: CCOC(=O)c1c(N)sc(C(=O)Nc2ccccc2F)c1C
  -27%	-17%
28: C/C(=N\NC(=O)c1ccccc1)c1ccc(-n2ccnc2)cc1
  -12%	?
29: CCC(C)NC(=O)c1ccccc1-c1nc2ccccc2[nH]1 (configuration not stated)
  -27%	i
30: CCCSc1nnc2c(n1)OC(c1sccc1C)Nc1ccccc1-2 (configuration not stated)
  -6%[7.34 µM]	-9%[7.34 µM]
31: Cc1cc(C)nc(SCc2nnc(SCC(=O)Nc3ccc(C)c(C)c3)n2Cc2ccco2)n1
  -18%	?
32: CC(C)(C)c1ccccc1NC(=O)C1=COCCO1
  -6%	i
33: NC(=O)c1c(N)sc(=S)n1CC1CCCO1 (configuration not stated)
  -5%	-13%
34: CCCCOC(=O)c1nc[nH]c1C(=O)OCCCC
  -11%	i
35: CC(=O)Nc1ccc(S(=O)(=O)N(C)CC(=O)OCC(=O)N2CCCC2=O)cc1
  1%	-14%
36: Cc1[nH]c2ccccc2c1C(=O)CN1C(=O)C(=O)N(Cc2ccco2)C1=O
  -10%	-15%
37: O=C(NCCCN1CCCC1=O)c1c(O)nc2sccn2c1=O
  -13%	-15%
38: CCOC(=O)c1c(NC(=O)Cn2cnc([N+](=O)[O-])n2)sc2c1CCCC2
  -25%	-8%
39: CCC(=O)Nc1c(C)nn(C(=O)CC)c1C
  -10%	/
40: CC1(C)CC(=O)C=C(C(=O)N2CCCC(CCC(=O)NCc3ccccc3F)C2)O1 (configuration not stated)
  -3%	i

(more compounds)
Below each compound: VACV Venus inh	Vaccinia mCherry
41: CCC(CC)C(=O)Nc1nnc(S(=O)(=O)N2CCc3ccccc32)s1
  -7%&-11%	-4%
42: CC(=O)NC1C(=O)N(CCN2CCOCC2)c2ccc(Br)cc21 (configuration not stated)
  -3%	-3%
43: Cc1ccc2cc(C(=O)O)c(C)nc2c1
  23%	/
44: COc1ccc(CC(=O)O/N=C(\N)c2cccc([N+](=O)[O-])c2)cc1
  -8%	-23%
45: COC(=O)c1ccc(C(NC(=O)OCc2ccccc2)/C(F)=C/[C@@H](C)C(=O)NCc2ccc(OC)c(OC)c2)cc1 (some centres not stated)
  ?	-23%
46: CCN(c1ncnc2c1cnn2-c1cccc(Cl)c1)C1CCCCC1
  0%	-8%
47: CC1=C(C(=O)OCC(C)C)C(c2ccc(OCc3ccccc3)cc2)N2C(=O)CCSC2=N1 (configuration not stated)
  -11%	-9%
48: CCC(NC(=O)C1(C)CC1(Br)Br)c1ccc(C)cc1 (configuration not stated)
  -26%	/
49: COc1ccc(CCn2c(=S)[nH]c3cc(C(=O)N4CCOCC4)ccc3c2=O)cc1OC
  -10%	-11%
50: CCOC(=O)C1=C(C)NC(C)=C(C(=O)OCC)C1
  -17%	i
51: CCCCCn1c(=NC(=O)c2ccco2)c(C(=O)OCC)cc2c(=O)n3ccccc3nc21
  -5%&-11%	-4%
52: C[C@@]12CCC(O)C[C@H]1CCC1C2CC[C@]2(C)C(=O)CCC12 (some centres not stated)
  0%	i
53: CC(C)(C)NC(=O)C(c1ccncc1)N(Cc1ccco1)C(=O)c1ccc(-c2ccccc2)[nH]1 (configuration not stated)
  -20%	-22%
54: CCOc1ccccc1N(CC(=O)Nc1ccccc1Br)S(=O)(=O)c1ccccc1
  -21%	-9%
55: COC(=O)c1ccc2c(c1)N(C)S(=O)(=O)c1cnc(SCC(=O)C(C)(C)C)nc1-2
  28%	i
56: COc1ccc(-c2csc3ncnc(N4CCN(c5ccccc5Cl)CC4)c23)cc1
  -20%	-22%
57: O=C(O)C1OC(Oc2c(-c3ccc(O)c(O)c3)oc3cc(O)cc(O)c3c2=O)C(O)C(O)C1O (configuration not stated)
  -4%	i
58: COc1ccc(NC(=O)c2cc(C)nc3ccccc23)cc1S(=O)(=O)N1CCOCC1
  -15%	-3%
59: COc1ccc(NCc2cccn2-c2nnc(N3CCC(C)CC3)s2)c(OC)c1
  -15%	-12%
60: COC(=O)[C@@]12C[C@@H](CC(=O)NCC3CCCCC3)C(=O)N(Cc3ccccc3)C1=CCC(C)(C)C2
  ?	?

Continued.
Below each compound: VACV Venus inh	Vaccinia mCherry
61: CCOc1cc(/C=N\NC(=O)Cn2nc([N+](=O)[O-])cc2C)ccc1OCc1cccc2ccccc12
  -15%	-24%
62: COc1ccc(S(=O)(=O)NC(=O)C2(C)CCN2C(=O)Cc2cc(C)cc(C)c2)cc1OC (configuration not stated)
  23%	19%
63: O=S(=O)(c1ccc(Br)cc1F)N1CCCCC1CCO (configuration not stated)
  -12%	i
64: CC[N+]1(C)CCC(O)(c2ccc(OC)cc2)C(C(=O)c2ccc(OC)cc2)C1 (configuration not stated)
  -29%	?
65: O=C(CSc1nc2c(c(C(F)(F)F)n1)CCc1ccccc1-2)NCc1ccco1
  -10%	-8%
66: COc1ccccc1CNC(=O)c1cc(Sc2cccc(Cl)c2)nc2ccccc12
  0%	i
67: O=c1c(Cl)c(N/N=C/c2ccc(Cl)cc2)cnn1-c1ccccc1
  ?	-29%
68: CCCc1ccc(OCC(=O)O)cc1
  -2%	-17%
69: COC(=O)CSc1nccc(-c2cccs2)n1
  -1%	i
70: CC(C)(C)C(=O)N1CCN(c2ccc([N+](=O)[O-])cc2Cl)CC1
  -21%	-23%
71: Cc1noc(C)c1COc1cccc(C(=O)Oc2ccc3c(c2)OCO3)c1
  0%	-1%
72: CCCCN(C(=O)c1cc2c(s1)CCCCC2)c1c(N)n(CC(C)C)c(=O)[nH]c1=O
  -5%	0%
73: CCn1c(SCC(=O)NC2CCCC2)nnc1-c1ccoc1C
  -6%	-20%
74: CC(=NNC(=O)c1cccc(S(=O)(=O)N2CCOCC2)c1)c1ccc(Cl)cc1
  -4%	-3%
75: COc1ccc(S(=O)(=O)N(CCCN2CCCC2=O)Cc2cc3cc(C)c(C)cc3[nH]c2=O)cc1
  ?	?
76: Cc1cc(C)n(-c2nc3ccccc3nc2N2CCN(C(=O)c3ccc(F)cc3)CC2)n1
  -15%	-19%
77: CC(=O)c1ccc(S(=O)(=O)N2CCNC(=O)C2)cc1
  -12%	-17%
78: O=C(O)CSC1c2ccccc2C(=O)N1Cc1ccccc1 (configuration not stated)
  -16%	i
79: O=c1c([N+](=O)[O-])c(N2CCOCC2)c2ccccc2n1-c1ccccc1
  -16%	i
80: CC12CCC(C(=O)NCC3CCCO3)(OC1=O)C2(C)C (configuration not stated)
  -19%	/

Going on with the list.
Below each compound: VACV Venus inh	Vaccinia mCherry
81: CC(=O)Nc1cccc(C(=O)Nc2ccc(S(=O)(=O)NC3=NCCCCC3)cc2)c1
  -11%	-11%
82: COC(=O)C(Cc1ccccc1)NC(=O)CNC(=O)c1ccccc1OC (configuration not stated)
  -2%	i
83: COc1ccc(NC(=O)c2cc3c(Cl)nc4ccccc4c3s2)cc1OC
  -1%	-10%
84: O=C(Nc1ccc(-c2nc3ccccc3[nH]2)cc1)c1ccco1
  -7%&-15%	3%&-19%
85: Cc1csc(NC(=O)c2nc3nc(C)cc(C)n3n2)n1
  -2%	-16%
86: CC(C)(C)c1ccc(-n2ncc3c2CCCC3NC(=O)CCn2cncn2)cc1 (configuration not stated)
  -23%	-24%
87: CCC(C)c1ccccc1N=Cc1ccc2c(c1)OCO2 (configuration not stated)
  9%	-5%
88: COC(=O)C1=C(c2cccc(C#N)c2)C[C@@H]2CC[C@H]1N2C(=O)N1CCc2cc(OC)c(OC)cc2C1
  -22%	i
89: CC(C)Oc1ccc(CNC2CCOC(C)(C)C2)cc1 (configuration not stated)
  -4%	-6%
90: CCOC(=O)c1cccc(NC(=O)CCc2c(C)nc3cc(-c4ccc(Cl)cc4)nn3c2C)c1
  2%	-15%
91: CCn1nc(NS(=O)(=O)c2ccc([N+](=O)[O-])cc2)c2cc3cc(C)ccc3nc21
  -7%	-11%
92: CN1CCN(c2ccc(S(=O)(=O)N3CCOCC3)cc2NC(=O)COc2ccc(F)cc2Cl)CC1
  -19%	-11%
93: CCc1ccc(NC(=O)CSc2nnc3[nH]c(=O)cc(-c4ccccc4)n23)cc1
  -3%	-15%
94: COc1ccc(N=Cc2oc3ccc4ccccc4c3c2O)cc1
  9%	?
95: C/C(=N\NS(=O)(=O)c1ccc([N+](=O)[O-])cc1)c1ccc(NC(=O)c2ccco2)cc1
  -5%	-9%
96: CCOC(=O)C1=CCN(S(=O)(=O)c2ccc(C)cc2)C1c1ccc(CC)cc1 (configuration not stated)
  -18%	-3%
97: O=C(CSc1nnnn1-c1cccnc1)NCc1cccs1
  -9%	i
98: COc1ccc(CC2CC(=O)N(c3ccc(C)cc3)C2=O)cc1 (configuration not stated)
  -2%	-2%
99: CC(C)CNC(=O)c1ccccc1C(=O)NC1(C(=O)NCC(C)C)CCCC1
  -3%	-7%
100: COC(=O)c1ccc(-n2c(/C=C/c3cc(OC)c(OC)c(OC)c3)nc3cc(Cl)ccc3c2=O)cc1
  -28%	?

Additional structures follow.
Below each compound: VACV Venus inh	Vaccinia mCherry
101: Cc1nc(-c2ccc(S(=O)(=O)N3CCCCCC3)cc2)cs1
  ?	/
102: Nc1ncnc2c1ncn2C1CCCO1 (configuration not stated)
  -3%	-26%[87.9 µM]
103: CC(C)c1ccc(NC(=O)CN2C(=O)c3ccccc3S2(=O)=O)cc1
  -8%	-23%
104: COc1ccc(CCNC(=O)c2cc(COc3c(F)cccc3F)on2)c(OC)c1
  -15%	-23%
105: O=C(NCCC1=CCCCC1)C1CCC(=O)N(Cc2ccc(Cl)cc2)C1 (configuration not stated)
  ?	-21%
106: CC1(C)Cc2c(c(-c3ccccc3)nc3sc4c(=O)[nH]c(=S)[nH]c4c23)CO1
  -3%	i

Outcome played no part in choosing rows, and some 0.88% of all compounds hit somewhere here.
